From PubChem
Menin MLL FP FL: qHTS Assay for Inhibitors Targeting the Menin-MLL Interaction in MLL Related Leukemias: Competition With Fluorescein Labeled MLL-derived Peptide. Fluorescence polarization, fluorescein-MLL peptide displacement from menin. FP activity change, % at 61.4 µM. 290,000 tested, under 10 active; inconclusive = falling polarisation curve, or a change in total fluorescence; inactive = total fluorescence flat and polarisation flat or rising; no compound was filed as active; the % refers to the polarisation; negative = inhibition;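 further: % of control where 0% means no effect; inhibitors lower the polarisation; unlabelled MLL peptide was the positive control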
TRPML1 blocker: qHTS for Inhibitors of the Human Mucolipin Transient Receptor Potential 1 (TRPML1); TRPML1-inducible cells, Ca2+ dye fluorescence, FDSS; stronger effect = lower value; inhibition of EC80 agonist-evoked calcium signal; activity change, negative = inhibition, % (concentration not given with the values); actives 0.02% (n = 390,000); AID 624415, 2012; in the data active means activity change below about -50%; inconclusive means about -30% to -50%; inactive means above about -30%;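 further: stimulus is agonist 54-4 at its EC80 concentration; on the % scale 0 is the no-effect control and ±100 the full control effect; compound concentration not given in the record; the text of the record puts the active cut at -80%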
Target sequence (Q9GZU1 whole entry, looked up): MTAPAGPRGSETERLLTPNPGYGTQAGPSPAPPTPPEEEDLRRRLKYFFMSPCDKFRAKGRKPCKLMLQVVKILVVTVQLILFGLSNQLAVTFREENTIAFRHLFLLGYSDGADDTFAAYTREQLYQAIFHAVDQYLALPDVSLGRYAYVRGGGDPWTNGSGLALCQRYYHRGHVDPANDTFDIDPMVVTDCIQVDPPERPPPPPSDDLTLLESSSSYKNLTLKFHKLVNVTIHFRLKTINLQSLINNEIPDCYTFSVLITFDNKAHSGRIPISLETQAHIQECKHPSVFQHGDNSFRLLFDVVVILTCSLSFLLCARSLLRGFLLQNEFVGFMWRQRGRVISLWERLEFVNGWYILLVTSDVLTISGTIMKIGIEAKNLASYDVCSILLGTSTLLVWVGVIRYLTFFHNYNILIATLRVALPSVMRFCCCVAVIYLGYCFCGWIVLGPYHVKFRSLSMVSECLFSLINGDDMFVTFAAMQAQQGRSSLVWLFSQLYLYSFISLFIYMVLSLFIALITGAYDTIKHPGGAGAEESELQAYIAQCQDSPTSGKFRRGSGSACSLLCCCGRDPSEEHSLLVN
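Tet-induced TRPML1-DL cells loaded with Ca8 no-wash calcium dye were read kinetically on FDSS. Compound addition was followed by EC80 agonist 54-4 (4 uM final); inhibition was read over 110 s.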
ClpP mod: qHTS Assay for Activators of ClpP; actives 1.9% (n = 340,000); Potency, µM (top dose mostly 57.5 µM), for the others: at the top dose activity change, negative = active; purified B. subtilis ClpP, FRET peptide cleavage, 20 min; active = well fitted falling curve with a large enough effect; inconclusive = small, poorly fitted or top-dose-only effect; inactive = no such curve, though single readings can be large or run the other way; further: potency means the concentration at half of the fitted maximal effect; the source files actives as falling curves though it sought activators and does not explain the sign; nearly all actives have a fitted effect of over 65% in size; many hits overshoot -100%
Target sequence (P80244 whole entry, looked up): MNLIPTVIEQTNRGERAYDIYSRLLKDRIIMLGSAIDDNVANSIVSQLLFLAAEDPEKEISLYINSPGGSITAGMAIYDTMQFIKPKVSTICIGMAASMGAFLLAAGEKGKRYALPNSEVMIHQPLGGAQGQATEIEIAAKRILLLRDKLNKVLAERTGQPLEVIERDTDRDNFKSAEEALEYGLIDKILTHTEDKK
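ClpP 10 microg/mL final, pH 8 Tris/KCl buffer with BSA, glycerol, Tween-20; compound pinned in; FRET-FV substrate; RT 20 min; Ex320/Em430; ΔFRET vs ADEP 5.8 microM, DMSO, no enzyme.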
TRPV1 potentiator: HTS Assay for Compounds that Act as Potentiators of the Vanilloid Receptor 1. Transient receptor potential cation channel subfamily V member 1 (Homo sapiens), Q8NER1. TRPV1-expressing cells, Fluo-8 calcium influx, capsaicin EC20 potentiation; host cell line not named in the record; control for the full effect not named in the record. potentiation, % at 8.33 µM. actives 0.02% (n = 320,000); active means potentiation above 80%; inconclusive means 30% to 80%; inactive means below 30%; further: 0% is about no effect
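Fluo-8 calcium influx in TRPV1-expressing cells, kinetic read (ex 480/em 520 nm). Compound added and read 3 min for agonist activity, followed by capsaicin at EC20 final and 2 min further read for enhancement.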
Sfp PPTase inh: qHTS Assay for Inhibitors of Bacillus subtilis Sfp phosphopantetheinyl transferase (PPTase); 4'-phosphopantetheinyl transferase ffp (Bacillus subtilis), Q9F4F7; Biochemical Sfp PPTase activity, qHTS; Potency, µM, inactives show max response, negative = inhibition, hits mostly inhibitors; actives 3.5% (n = 310,000); AID 1490, 2009; active means well fitted inhibition curve with a large enough effect; inconclusive means small, poorly fitted or top-dose-only effect, or another doubt; inactive means no such curve, though single readings can be large or run the other way;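 further: the enzyme is Sfp with the accession as filed and its product quenches rhodamine fluorescence; potency means the concentration at half of the fitted maximal effect; 0% = enzyme reaction without inhibitor and -100% = no enzyme wells; top concentration of the series not given in the record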
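With Hepes-Na pH 7.6 buffer containing 10 mM MgCl2, Sfp (15 nM) modified BHQ-2-YbbR (12.5 uM) using rhodamine-CoA (5 uM). Two reads 30 minutes apart at 525/598 nm yielded each well's rate.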
PINK1 expr mod: A Quantitative High throughput Screen to Identify Chemical Modulators of PINK1 Expression; actives 0.2% (n = 410,000); Potency, µM (top dose mostly 76.6 µM), without a hit: at the top dose activation (PINK1 increase), most hits filed as activators; PINK1 immunofluorescence, high-content cytometry, 24 h; AID 624263, 2012; active = well fitted activation curve with a large enough effect; inconclusive = small, poorly fitted or top-dose-only effect; inactive = flat fitted curve, though single readings scatter; cell line not stated here;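 further: potency means the concentration at half of the fitted maximal effect; % of control where 0% means no effect; nearly all actives have a fitted effect of over 65% in size; a mitochondrial uncoupler was the plate control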
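Stable cell line, 250 cells/well, 12 h attachment; compounds pinned at 5 concentrations, 24 h; CCCP control. Fixed with nuclear dye, primary antibodies 12 h at 10 degrees C, secondary plus cell stain; laser-scanning cytometer read.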
TRPML1 ag: qHTS for Agonists of the Human Mucolipin Transient Receptor Potential 1 (TRPML1). Mucolipin-1 (Homo sapiens), Q9GZU1. TRPML1-expressing cells, Ca2+ dye fluorescence, FDSS; host cell line not named in the record; reference of the full effect not given here. activation, % (no concentration beside the values). actives 0.12% (n = 410,000). AID 624414, 2012; in the data active = activation above about 50%; inconclusive = about 30% to 50%; inactive = below about 30%; further: 0% is about no effect; the text of the record puts the active cut at 80%
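In this qHTS format, compounds were pin-transferred onto Ca8-dye-loaded TRPML1-DL cells induced with Tet overnight, and intracellular Ca2+ fluorescence was recorded kinetically for 110 s after a 10 s baseline. A subsequent 4uM final 54-4 (EC80) addition followed by a second 110 s read served as the antagonist phase.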
* = called active by the depositor; u = inconclusive; x = not tested or not shown; & = joins results of further samples; [ ] = another dose, or the depositor's remark.

SMILES | Menin MLL FP FL | TRPML1 blocker | ClpP mod | TRPV1 potentiator | Sfp PPTase inh | PINK1 expr mod | TRPML1 ag
Cc1ccc(S(=O)(=O)CCC(=O)OCC(=O)c2c(C)[nH]c3ccccc23)cc1 | 9.1 | -3 | 1.3% | 2 | 8% | -2.7% | -0.4
O=c1[nH]cnc2c1C(c1ccc(Cl)cc1)c1c(nc[nH]c1=O)O2 | 3.2 | 4 | -2.9% | -2 | 13% | -0.4% | 0.7
C/C(=N\N)c1c(-c2ccccc2)c2cc(Br)ccc2[nH]c1=O | -0.3 | -8 | x | 6 | 3% | -0.8% | 1.2
CS(=O)(=O)Nc1cccc(C(=O)CC2(O)C(=O)Nc3ccc(Br)cc32)c1 (configuration not stated) | -6.8&-3.3 | 7 | -22% | 11&2 | 3%&-4% | 5.6% | 0.4
Nc1cc(N)c(OCC(F)(F)F)cc1OCC(F)(F)F | u | 7 | -0.6% | -8 | u | -2.1% | 0.7
O=C1/C(=C\c2cccs2)SC(=S)N1C1CCS(=O)(=O)C1 (configuration not stated) | 2.8 | 18 | x | 5 | -9% | 1.1% | 0.1
Cn1c(=O)[nH]c(=O)c2c1nc(N1CCOCC1)n2CCSc1nc2ccccc2[nH]1 | 1.6 | -11 | -0.1% | -4 | 6% | -1.5% | -0.8
CCOC(=O)c1cn2nc(Oc3cccc(F)c3)ccc2n1 | -0.1 | 3 | x | 2 | 0% | 0.6% | 0.1
C[C@@H](NC(=O)c1nc[nH]c1C(=O)N1CCN(c2ccccc2)CC1)c1ccccc1 | x | 37 | -2.5% | 20 | x | 0.1% | -0.5
CCCCNC(=O)C1CCC(CNS(=O)(=O)c2cccc3nsnc23)CC1 (configuration not stated) | 0.4 | 25 | -0.8% | 3 | 8% | -0.4% | -1.2
Cn1c(=O)c2c(nc(NCc3ccco3)n2Cc2ccc(Cl)cc2Cl)n(C)c1=O | -1.5 | -3 | -0.3% | 9 | -22% | 3.3% | 0.0
O=C(CN1CCOCC1)Nc1ccc(S(=O)(=O)NC2CCCCC2)cc1 | -1.1 | 14 | 0.3% | -2 | -12% | 1.2%[38.3 µM] | 4.4
COc1ccc(C2C(O)C(c3c[nH]c4ccccc34)=NN2C(=O)CCl)cc1 (configuration not stated) | 2.2 | 13 | x | 2 | -2% | 1.5% | 1.1
COc1ccc(C2OC34CCCCC3C(C#N)(C#N)C2(C#N)C(=N)O4)cc1 (configuration not stated) | u | -16 | 11µM* | 3 | -5% | 0.5% | 2.0
CCOc1ccccc1C(=O)Nc1nnc(CC)s1 | 1.4 | 19 | -0.6% | 10 | 3% | 1.3% | -0.5
O=C(O)COc1ccccc1/C=N/NC(=O)/C(=C\c1ccc2c(c1)OCO2)NC(=O)c1ccccc1 | -1.6 | 19 | x | 15 | u | -1.4% | -0.1
COc1cc(NC(=S)Nc2cccnc2)cc(OC)c1 | 5.5 | -7 | 2.5% | 7 | u | 1.8% | -0.1
CCN(CC)Cc1cc(Oc2ccc(O)c(CN(CC)CC)c2)ccc1O | x | x | -3.3% | x | x | 0.0% | 0.0
CCOC(=O)c1oc2nc(CC(C)C)c3c(c2c1N)CCC3 | -2.2 | -8 | u | -9 | 28% | -6.3%[38.3 µM] | 0.9
CCOc1cc(Br)c(C(C)NC(=O)c2cccnc2)cc1OCC (configuration not stated) | x | 8 | -0.7% | x | x | 0.6% | 4.5
Cc1ccc(N2CCN(C(=O)c3ccccc3Br)CC2)c(C)c1 | -2.3 | 49 | -2.5% | -7 | -15% | 5.6% | 0.5
Cc1ccccc1CN1CCC(n2nccc2NC(=O)CCOc2ccccc2)CC1 | x | 6 | 0.1% | 20 | -6% | -2.1% | -0.6
Cn1sc(NC(=O)c2ccccc2Cl)nc1=O | 1.4 | 3 | -0.7% | 2 | u | -1.7% | -1.5
O=C(NC1CCS(=O)(=O)C1)c1cccs1 (configuration not stated) | -5.2 | -8 | x | -1 | -1% | -0.2% | -0.6
O=C(NCCc1ccc(F)cc1)N[C@@H](Cc1ccccc1)C(=O)O | -2.3 | x | -0.1% | -6 | 10% | -0.6% | x
CC(C)(C)OC(=O)N1CCC(C(=O)Nc2cccc(C(=O)NC3CC3)c2)CC1 | x | -7 | 0.0% | x | x | 0.6% | 1.1
COc1ccc(CN(Cc2cccn2C)C(=O)c2cc3cc(OC)ccc3[nH]2)cc1 | 2.4 | 33 | -3.1% | u | 5% | -1.7% | 1.0
Cc1c(C(=O)NCc2ccccc2Cl)oc2c1C(=O)CCC2 | -0.3 | x | x | 0 | 2% | x | x
O=C(CSc1ccc2nnc(-c3ccc(Cl)cc3)n2n1)N1CCCC1 | 1.5 | -9 | -6.0% | u | 19% | 0.1% | -1.0
Cc1ccccc1S(=O)(=O)NC(=O)C1(C)CCN1C(=O)CCc1ccc(Cl)cc1Cl (configuration not stated) | x | x | 0.4% | x | x | -0.1% | -0.7
COc1ccc2c(c1)C1NC(=S)NC(C)(O2)C1C(=O)Nc1ccccc1C (configuration not stated) | 0.1 | -15 | -0.2% | 2 | 12% | 1.2% | 0.4
COc1ccc(CCNC(=O)CCCCC(=O)NCCc2ccc(OC)cc2)cc1 | -3.3 | 11 | -2.2% | -11 | 8% | 1.5% | 0.8
O=C(CCSCc1ccccc1Cl)N1CCN(c2cccc(Cl)c2)CC1 | 2.2 | 64&34 | -1.8%&-2.7% | -7 | -4% | 1.0% | 1.5&3.3
CCN(C[C@H]1N[C@@](CC)(C(=O)OC)[C@H]2C(=O)N(Cc3ccccc3)C(=O)[C@@H]12)S(=O)(=O)c1ccc(-c2ccccc2)cc1 | x | 3 | -6.5% | x | x | -0.6% | -0.3
CCOc1ccc(N2C(=O)CC(NCc3ccc(S(N)(=O)=O)cc3)C2=O)cc1 (configuration not stated) | 0.3 | x | -0.1% | -9 | 8% | -0.4% | x
Cn1c(SCC(=O)Nc2nc3ccccc3s2)ncc(C(=O)Nc2ccc(Cl)cc2)c1=O | x | 21 | 22µM* | x | x | u | -0.4
COc1ccc(CCNC(=O)c2c(C)oc3ncn(CC(C)C)c(=O)c23)c(OC)c1 | x | 6 | -0.2% | x | x | 0.0% | -0.7
Cc1nn(Cc2ccccc2)c(C)c1C(=O)OCC(=O)c1cc(C)n(C2CC2)c1C | -0.9 | 1 | 0.1% | 28 | -11% | u | 1.5
COCCNC(=O)/C(C#N)=C/c1ccc(N2CCOCC2)o1 | u | -15 | -0.3% | -8 | -11% | -3.2% | 4.2
COc1ccccc1OCc1nc(-c2cccc(C)c2)no1 | x | 1 | -0.2% | x | x | 4.6% | 0.8

A stretch from the list above, as a working copy:
SMILES | Menin MLL FP FL | TRPML1 blocker | ClpP mod | TRPV1 potentiator | Sfp PPTase inh | PINK1 expr mod | TRPML1 ag
Cc1ccc(N2CCN(C(=O)c3ccccc3Br)CC2)c(C)c1 | -2.3 | 49 | -2.5% | -7 | -15% | 5.6% | 0.5
Cc1ccccc1CN1CCC(n2nccc2NC(=O)CCOc2ccccc2)CC1 | x | 6 | 0.1% | 20 | -6% | -2.1% | -0.6
Cn1sc(NC(=O)c2ccccc2Cl)nc1=O | 1.4 | 3 | -0.7% | 2 | u | -1.7% | -1.5
O=C(NC1CCS(=O)(=O)C1)c1cccs1 (configuration not stated) | -5.2 | -8 | x | -1 | -1% | -0.2% | -0.6
O=C(NCCc1ccc(F)cc1)N[C@@H](Cc1ccccc1)C(=O)O | -2.3 | x | -0.1% | -6 | 10% | -0.6% | x

The list continues:
SMILES | Menin MLL FP FL | TRPML1 blocker | ClpP mod | TRPV1 potentiator | Sfp PPTase inh | PINK1 expr mod | TRPML1 ag
Cc1ccc(S(=O)(=O)NCC2CCC(C(=O)NCc3ccc4c(c3)OCO4)CC2)cc1 (configuration not stated) | 1.8 | -11 | -0.6% | 10 | -21% | 0.9%[38.3 µM] | 3.5
O=C(NCCCN1CCOCC1)c1ccc(CS(=O)(=O)c2cccc(C(F)(F)F)c2)o1 | 1.0 | -7 | 1.6% | -3 | 0% | 0.1% | 0.2
COc1ccc(OC)c(Cc2nnc(CCC(=O)NC(C3CC3)C3CC3)o2)c1 | -7.6 | 39 | x | -7 | 25% | 0.5% | 0.3
O=C(OCc1ccc(Br)cc1)c1cc([N+](=O)[O-])ccc1N1CCOCC1 | x | 33 | 0.5% | x | x | 4.2% | -0.9
CCOc1ccccc1CNCCNCC(C)O (configuration not stated) | 1.7 | -26 | -1.4% | 11 | -15% | 1.8% | 0.7
O=C(CN1C(=O)c2ccccc2C1=O)Nc1cc([N+](=O)[O-])ccc1O | -0.4 | -11 | 0.8% | 2 | 6% | 1.8% | 3.2
O=C(CCCCCNc1nc(=S)[nH]c2ccccc12)NCCc1c[nH]c2ccccc12 | -0.8 | 3 | 2.6% | 15 | 11% | -0.4% | 0.4
Cc1ccsc1CNC(=O)C1(C)CCCN1CC(C)C (configuration not stated) | x | x | -1.3% | x | x | 1.8% | -0.7
CC(=O)OCC(=O)[C@@]1(O)CC[C@H]2[C@@H]3CCC4=CC(=O)C=C[C@]4(C)[C@@]3(Cl)[C@@H](Cl)C[C@@]21C | 0.3 | 16 | 0.6% | -9 | 7% | 0.9% | 0.0
C#CCOCCOCCOCCNc1nc(N2CCN(C(=O)[C@H]([C@@H](C)CC)n3cc(CCC(=O)O)nn3)CC2)nc(N2CCN(C(=O)[C@H](Cc3ccc(O)cc3)n3cc(CCO)nn3)CC2)n1 | x | -2 | -1.3% | x | x | -0.8% | 0.7
Cc1cc(Cl)ccc1NC(=S)NCCCN1CCCC1=O | 3.5 | 27 | x | 4 | 6% | -1.0% | 1.2
CCOC(=O)c1cccc(NC(=O)c2cc3ccccc3o2)c1 | 3.1 | -13 | -6.4% | -13 | 0% | -0.1% | -0.1
COC(=O)Cn1cccc1C(=O)c1ccccc1 | 0.4 | -8 | -2.2% | -1 | 15% | 9.0%[38.3 µM] | -0.4
